Compound activity as filed in PubChem.
GALR2 ag = GALR2 (human) receptor agonism. activation, %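 (tested at 5 µM)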. GALR2-expressing cells, agonist activation read-out. O43603. hit rate 0.48% among 140,000;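 active = above mean plus 3 SD of all compounds, about 5% in these data, not always enough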;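 note: 0% = vehicle buffer wells and 100% = reference agonist at full effect; tested in CHO reporter cells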
Target sequence (O43603 whole entry, looked up): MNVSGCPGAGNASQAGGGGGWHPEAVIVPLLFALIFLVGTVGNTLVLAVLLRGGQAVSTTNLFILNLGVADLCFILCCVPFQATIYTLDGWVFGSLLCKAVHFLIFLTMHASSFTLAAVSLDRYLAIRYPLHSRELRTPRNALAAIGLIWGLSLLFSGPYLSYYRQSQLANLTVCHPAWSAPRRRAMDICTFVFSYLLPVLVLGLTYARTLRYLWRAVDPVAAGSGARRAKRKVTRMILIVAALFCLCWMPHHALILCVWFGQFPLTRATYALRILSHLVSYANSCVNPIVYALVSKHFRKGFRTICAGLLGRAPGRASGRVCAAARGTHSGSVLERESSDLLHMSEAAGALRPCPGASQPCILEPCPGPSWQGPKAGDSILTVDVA
HSV replic up = HSV replication enhancement; maximum fold increase; AID 1956; hit rate 0.005% among 220,000; HSV replication augmentation in cells, fold increase;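 active = peak rise of 1.5-fold or more in the series; tested in PC3 cells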;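 note: first round at 10 µM; read as green reporter fluorescence; hits show the peak of a series up to 25 µM; 1 = signal of infected wells without compound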
RGS16-Gao = regulators of human RGS16-Galphao interaction; O15492+P09471; bead-based flow cytometry RGS16-Galphao binding, fluorescence; actives lie on both sides; binding response (% of control), % at 10 µM; hit rate 0.38% among 220,000;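 active = below 25% or above 175%, edge rows of some plates excepted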;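 note: Galphao activated by GDP with aluminum fluoride before binding; 100% = wells without compound and 0% = beads without RGS; some results beyond the cut were filed as inactive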
Target sequence (O15492 whole entry, looked up): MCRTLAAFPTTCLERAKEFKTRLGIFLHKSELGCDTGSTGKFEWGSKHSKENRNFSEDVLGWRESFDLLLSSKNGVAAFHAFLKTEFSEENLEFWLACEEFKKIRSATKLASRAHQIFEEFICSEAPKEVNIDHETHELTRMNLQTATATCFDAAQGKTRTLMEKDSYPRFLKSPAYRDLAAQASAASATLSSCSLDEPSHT
Target sequence (P09471 whole entry, looked up): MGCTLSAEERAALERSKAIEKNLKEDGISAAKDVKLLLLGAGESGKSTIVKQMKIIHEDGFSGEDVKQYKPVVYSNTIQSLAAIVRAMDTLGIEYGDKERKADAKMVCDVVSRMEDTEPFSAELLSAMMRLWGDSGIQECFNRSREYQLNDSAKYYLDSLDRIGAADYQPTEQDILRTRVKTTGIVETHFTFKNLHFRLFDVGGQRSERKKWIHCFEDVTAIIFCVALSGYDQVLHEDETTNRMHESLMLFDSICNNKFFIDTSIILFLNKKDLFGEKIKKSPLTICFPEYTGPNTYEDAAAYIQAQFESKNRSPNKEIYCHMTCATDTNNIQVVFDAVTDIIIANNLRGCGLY
PKD1 inh = inhibitors of human PKD1 kinase; Q15139; hit rate 0.056% among 200,000; inhibition, %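 (about 10 µM by stock and volumes)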; AID 797; PKD1 kinase fluorescence polarization assay;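 active = inhibition of 50% or more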;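 note: controls were vehicle for no effect and a reference inhibitor for full effect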
Insulin prom inh = TRM-6 insulin promoter activity inhibition | TRM-6 cells (human fetal islet line), insulin promoter-eGFP reporter, imaging; reporter expression induced with tamoxifen | inhibition, % at 2 µM | hit rate 0.9% among 130,000;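 active = inhibition above the mean plus 3 SD, with well images judged a real hit on visual review, cut at about 60% in these data, passing the limit was not always enough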
Insulin prom inh cell count = recorded beside Insulin prom inh, whose call it bears; normalized cell count, %; measured here: cell count, toxicity; reference of the scale not given here;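 cells exposed to compound for 48 h; stained nuclei by imaging scaled within each plate; lower means fewer cells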
HSV replic up primary fold = recorded beside HSV replic up, whose call it bears; fold increase; compound at 10 µM; measured here: primary screen fold increase 10 uM; tested in PC3 cells;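 GFP signal in the first replicate; 1 = infected wells without compound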
* hit, by the source's call; i = inactive; . = no result given.

SMILES	GALR2 ag	HSV replic up	HSV replic up primary fold	RGS16-Gao	PKD1 inh	Insulin prom inh	Insulin prom inh cell count
CC(=O)Nc1cccc(Oc2nc(C)cc(C)c2C#N)c1	-0.7	i	1.03	96.4	-8.4	.	.
O=c1ccc(=O)n(-c2ccccc2)[nH]1	.	i	1.21	109.8	.	.	.
O=C(CCn1cccc1)NCCc1ccc(Cl)cc1	-2.3	i	0.943	95.4	-4.3	14.3	154.9
CCCCOC(=O)Nc1ccc(S(=O)(=O)Nc2nc(C)cc(C)n2)cc1	-1.7	i	0.91	101.1	8.2	-36.8	139.1
O=C(COC(=O)Cc1ccc(Cl)cc1)Nc1ccccc1F	.	i	1.05	105.0	-3.5	.	.
O=C(Nn1cnnc1)c1ccccc1-c1ccccc1	-2.2	i	0.973	103.5	-6.8	-25.6	79.3
Cc1cc(-c2nnc(SCC(=O)c3ccc(F)cc3)o2)no1	-0.1	i	1.06	98.2	-5.8	17.2	149.6
O=C(CSc1ncc(C(F)(F)F)cc1Cl)NCC1CCCO1 (centres undefined)	.	i	0.94	100.0	.	.	.
COC(=O)C12CCC3(SCCS3)C(C(=O)OC)(CCC13SCCS3)C2	-2.8	i	0.94	81.1	-4.6	25.9	105.0
Cc1cc(C)n(-c2ccc(C(=O)OCn3nnc4ccccc4c3=O)cc2)n1	-1.2	i	1.45	99.3	-12.4	.	.
CN1CCN(C(=O)CSc2nc3ccc(NC(=O)c4ccccc4F)cc3s2)CC1	.	i	0.98	102.3	.	.	.
CCOc1cc(/C=N/NC(=O)c2cccnc2)ccc1O	.	i	1.12	97.4	.	.	.
O=C(Nc1nnc(COc2ccccc2)s1)c1ccco1	-2.0	i	0.7	107.0	-5.7	.	.
COc1ccc(N2CCN(C(=O)Cc3nn(C)c(=O)c4ccccc34)CC2)cc1	-1.0	i	0.95	91.5	-2.0	-7.9	76.7
O=C(CCc1nc2ccccc2c(=O)[nH]1)NCc1ccco1	.	i	1	103.8	8.7	.	.

Some of these compounds in order of number of heavy atoms, rising.
SMILES	GALR2 ag	HSV replic up	HSV replic up primary fold	RGS16-Gao	PKD1 inh	Insulin prom inh	Insulin prom inh cell count
O=C(CCn1cccc1)NCCc1ccc(Cl)cc1	-2.3	i	0.943	95.4	-4.3	14.3	154.9
O=C(Nc1nnc(COc2ccccc2)s1)c1ccco1	-2.0	i	0.7	107.0	-5.7	.	.
Cc1cc(-c2nnc(SCC(=O)c3ccc(F)cc3)o2)no1	-0.1	i	1.06	98.2	-5.8	17.2	149.6

Next structures follow.
SMILES	GALR2 ag	HSV replic up	HSV replic up primary fold	RGS16-Gao	PKD1 inh	Insulin prom inh	Insulin prom inh cell count
Cn1c(=O)[nH]c(=O)c2c1nc(N1CCCCC1)n2C/C=N/NC(=O)c1cc(Br)ccc1O	.	i	0.95	90.0	.	.	.
CC(OC(=O)C1=COCCO1)C(=O)Nc1ccc(Oc2ccccc2)cc1 (centres undefined)	-3.0	i	0.987	104.3	2.3	-26.7	95.0
Cc1ccc(-c2ccnc(-c3ccc(O)cc3)n2)cc1	.	i	1.02	95.1	-4.9	.	.
CCOC(=O)c1[nH]c(C)c(C(=O)N(C)Cc2ccccc2)c1C	-3.3	i	0.66	99.5	-3.3	.	.
COc1ccc(NC(=O)CCC(=O)c2cccs2)cc1S(=O)(=O)Nc1ccc(Cl)cc1	-0.9	i	0.86	101.9	-1.1	.	.
CCCN1CCC(=O)N([C@H](CSc2ccc(Br)cc2)Cc2ccccc2)CC1	.	i	0.91	100.8	.	.	.
COc1ccccc1NC(=O)C1=C(C)NC(=O)NC1c1ccccc1[N+](=O)[O-] (centres undefined)	.	i	0.85	101.0	4.9	-66.7	168.7
CCOc1ccccc1N(CC(=O)Nc1ccc(C)cc1)S(C)(=O)=O	-1.0	i	0.98	97.2	5.6	.	.
Cc1[nH]nc(SCC(=O)N2CCCCC2)c1[N+](=O)[O-]	-0.3	i	1.01	98.1	-3.2	-37.5	74.6
CC(=O)C1=C(C)N2CCN=C2S1	.	i	1.01	83.4	.	.	.
CCN(CC)CCNC(CC(=O)Nc1ccc(Cl)cc1Cl)C(=O)O (centres undefined)	-1.8	i	1.41	88.6	-7.4	93.8*	90.4*
COc1ccc2oc(-c3ccc(C)c(NC(=O)CSc4ccc(Cl)cc4)c3)nc2c1	-2.8	i	1.01	99.4	-9.0	-33.3	115.4
Cc1oc(-c2ccc(Cl)cc2)nc1CN1CCC(C(=O)NCc2cccnc2)CC1	-2.7	i	0.94	112.8	3.0	.	.
c1ccc2c(-n3cccn3)cccc2c1	-3.7	i	1.01	99.7	1.3	54.8	156.4
O=C(COc1cccc(-n2cnnn2)c1)NC1CCCCC1	.	i	0.99	108.6	-3.4	.	.
CCN(CC)C(=O)Cn1c(=O)n(-c2ccc(CC(=O)NCc3ccccc3)cc2)c(=O)c2sccc21	.	i	0.97	100.3	-3.9	20.0	124.9
COC(=O)c1cc(OC)c(OC)cc1NC(=O)C1CCC(=O)N1S(=O)(=O)c1ccc(C)cc1 (centres undefined)	1.1	i	0.83	99.3	1.6	-41.7	128.4
C=CCn1c(=N)c(C(=O)NCCCOC)cc2c(=O)n3cc(C)ccc3nc21	16.5*	.	.	102.2	-0.7	.	.
Cc1cccc(C)c1-n1c(C)nn(CC2CC2)c1=O	.	i	0.95	101.0	1.8	.	.
O=C(CN1C(=O)c2ccccc2C1=O)NNC1=NS(=O)(=O)c2ccccc21	-2.0	i	1.02	99.2	1.4	-42.9	130.9
Cc1ccccc1C(=O)NC1CC(C)(C)NC(C)(C)C1	0.1	i	1.02	111.5	-4.0	-11.1	127.1
Cn1ccc(C(=O)Oc2ccc(C(=O)Nc3ccc(F)cc3F)cc2)n1	.	i	0.97	21.2	-0.2	-38.1	65.9
CCNC(=O)CN(c1ccc(Cl)cc1)S(=O)(=O)c1ccccc1	-0.8	i	0.87	100.4	-5.6	41.7	129.4
Cc1cc2cc(CNC(=O)CC(C)C)ccc2n1C	0.7	i	0.93	107.2	13.5	.	.
O=C(CSc1nc2c(sc3ccccc32)c(=O)n1Cc1ccco1)NCC1CCCO1 (centres undefined)	-0.9	i	1.04	99.6	-0.5	-21.4	87.6
COc1ccc(CC(=O)OCC(=O)Nc2c(C)n(C)n(-c3ccccc3)c2=O)cc1	-1.4	i	0.97	96.5	0.1	-35.5	60.5
FC(F)(F)c1cnc(N2CCN(C(=S)NCc3ccccc3)CC2)c(Cl)c1	.	i	1.06	101.8	.	.	.
CCOC(=O)c1cnc(SCC(=O)Nc2cccc(OC)c2)nc1N	-4.2	i	1.06	104.3	7.0	.	.
CN(C)c1ccc2c3c(ccc(N(C)C)c13)C(=O)OC2	.	i	0.97	74.0	.	.	.
CCOC(=O)c1nnc(-c2ccccc2)nc1NCc1ccc(Cl)cc1	-1.3	i	0.85	109.4	-15.6	-13.3	91.6

Next section; it opens with the 3 that closed the last part.
SMILES	GALR2 ag	HSV replic up	HSV replic up primary fold	RGS16-Gao	PKD1 inh	Insulin prom inh	Insulin prom inh cell count
CCOC(=O)c1cnc(SCC(=O)Nc2cccc(OC)c2)nc1N	-4.2	i	1.06	104.3	7.0	.	.
CN(C)c1ccc2c3c(ccc(N(C)C)c13)C(=O)OC2	.	i	0.97	74.0	.	.	.
CCOC(=O)c1nnc(-c2ccccc2)nc1NCc1ccc(Cl)cc1	-1.3	i	0.85	109.4	-15.6	-13.3	91.6
CCCC(=O)Nc1ccc2oc(-c3cncc(Br)c3)nc2c1	.	i	0.98	119.8	-3.9	.	.
CCN1CCN(c2ccc(NC(=O)c3ccc4c(c3)[nH]c(=O)n4Cc3ccc(OC)cc3)cc2)CC1	0.7	i	0.62	108.1	2.3	.	.
O=C(Nc1nc2ccccc2n1CCN1CCCCC1)c1ccco1	-1.3	i	1.01	102.3	-11.3	-6.1	79.3
COC(C[C@H]1O[C@H]1[C@H](O)[C@H](C)OCc1ccccc1)OC	.	i	1.03	92.5	.	.	.
Cc1cc(NC(=O)CCCC(=O)N(CC(=O)NC2CCCCC2)c2ccccc2)no1	-1.6	i	0.99	100.0	-12.8	-58.8	75.9
CCN(CC)S(=O)(=O)c1cccc(-c2nnc(SCC(=O)c3cc(C)n(C)c3C)o2)c1	-0.6	i	1.01	102.7	-8.5	21.4	161.2
CCCS(=O)(=O)NCCc1cc2c(OC)ccc(OC)c2[nH]c1=O	-1.6	.	.	104.4	4.6	54.5	92.8
CCC(=O)Nc1ccc(NC(=S)NC(=O)c2oc3ccccc3c2C)cc1	-2.3	i	0.98	62.5	-2.4	6.7	101.7
CS(=O)(=O)N(CC(N)=O)c1cccc(Br)c1	-2.2	i	1	105.0	2.5	i	24.6
COc1cccc(Cn2c(=S)[nH]c3ccc(N4CCOCC4)cc3c2=O)c1	-0.7	i	0.85	100.9	1.5	-59.4	155.3
O=C(C1CCC(=O)N1Cc1cccnc1)N1CCN(c2ccc(F)cc2)CC1 (centres undefined)	-1.9	i	0.98	95.6	2.7	.	.
CCOc1c(Cl)cc(CNc2ccc(S(N)(=O)=O)cc2)cc1OC	-0.4	i	0.92	76.4	1.8	28.6	23.1
COc1cccc(OC)c1OCCCCN1CCCC1	0.2	i	0.983	94.6	7.1	-46.1	98.3
COc1nnc(OC)c2ccccc12	-2.2	i	0.87	98.5	-4.9	-18.2	77.6
COCCCNC(=S)NC1CC2CCCC(C1)N2Cc1ccco1 (centres undefined)	-1.3	i	0.72	433.5	-4.3	0.0	138.8
CCn1c(SCC(=O)c2cccs2)nnc1-c1ccco1	-1.8	i	1.02	100.1	-7.2	.	.
Cc1ccc(NC(=O)c2cc(-c3cccs3)on2)cc1	-0.6	i	0.91	102.9	4.9	25.0	64.5
COc1cccc(-n2nc(C(C)=O)c(C#N)c2-c2ccco2)c1	-2.8	.	.	26.6	-3.0	-16.7	77.8
Cc1cnc(NC(=O)CSc2ncn(-c3ccccc3)n2)s1	0.1	i	0.81	101.9	-4.0	-2.8	100.0
O=C(O)C1CCCCC1C(=O)OCCCCOC(=O)C1CCCCC1C(=O)O (centres undefined)	-0.9	i	1.14	105.2	-3.6	.	.
COc1ccccc1OCc1ccc(C(=O)N2N=C(C(F)F)CC2(O)C(F)F)o1 (centres undefined)	0.3	.	.	104.6	7.1	-23.3	105.5
O=C(NC(=S)Nc1ccc(CN2CCOCC2)cc1)c1cccc([N+](=O)[O-])c1	-1.3	i	0.83	105.7	-5.5	20.0	99.1
COCCN1CCN(Cc2cn(C)nc2-c2cccc(Cl)c2)CC1	.	i	0.98	101.3	-5.3	.	.
CCc1ccc(C2CC(c3ccco3)=NN2S(C)(=O)=O)cc1 (centres undefined)	-0.7	i	1.01	.	8.3	-19.4	137.9
O=C(Nc1ccc2c(c1)C(=O)N(C1CCCCC1)C2=O)C1CCCO1 (centres undefined)	-2.2	i	0.91	98.2	-7.2	40.7	141.6
C/C(=N\Nc1ccc(C(=O)O)cc1)c1nc2ccccc2n1C	-0.8	i	1.05	81.0	11.1	-5.9	81.3
OC(COc1c(Cl)cc(Cl)cc1Cl)CN1CCCCC1 (centres undefined)	-3.6	i	0.96	103.6	-37.3	-6.7	116.2
C=CCOc1ccccc1CN1CCC(CO)(CCOc2ccccc2)CC1	.	i	0.97	102.1	4.5	.	.
CCCCn1c(SCC(=O)N2CCC(C(=O)OCC)CC2)nc2cc(S(N)(=O)=O)ccc21	0.1	i	0.98	105.4	-3.0	-94.3	105.7
CCOc1ccc(NC(=O)COc2ccc(C(=O)NCCc3ccccc3)cc2)cc1	-0.3	i	1.02	79.0	8.0	.	.
CCCC1(C(=O)OCC)NC(c2ccc(OC)cc2OC)C2C(=O)N(c3ccc4c(c3)OCCO4)C(=O)C21 (centres undefined)	-1.4	i	0.96	135.6	-0.9	16.7	85.1
Cn1ccnc1SC(=O)N1c2ccccc2Sc2ccccc21	0.3	i	0.83	102.7	-2.2	-32.1	136.5
O=C(NCCCn1ccnc1)C(=O)NCC1OCCN1S(=O)(=O)c1ccc(Cl)cc1 (centres undefined)	-0.3	i	1.06	.	-10.1	4.8	98.8
COc1cccc(C2C([N+](=O)[O-])=C(N)Oc3cc(C)oc(=O)c32)c1 (centres undefined)	.	i	0.94	100.5	.	.	.
C[C@@H]1CC=C[C@H]2[C@H]1C(=O)N(Cc1ccccc1)[C@H]2c1ccc2ccccc2c1Br	.	i	0.67	100.1	.	.	.
O=C(Nc1ccc2oc(-c3cccnc3)nc2c1)c1ccco1	-1.3	i	0.99	93.1	-0.2	17.1	111.9
Cc1ccc(OCC(=O)NCc2cccnc2)cc1	.	i	0.98	109.2	-2.7	.	.

Hits appear at their usual frequency, and some 1.1% of all compounds hit somewhere here.
